# DUX4 inh: inhibitors of DUX4-driven ZSCAN4 reporter expression, primary screen, 293T cells, Gaussia and Italica luciferase. 293T-iDUX4 ZSCAN4-Gaussia luciferase reporter, 24 h; active compounds read low. activity change, negative = inhibition, % (test concentration not listed). actives 0.8% (n = 37,000). AID 1224904, 2016;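 active = -10% or lower and over 25 points stronger than a control reporter; inconclusive = -10% or lower with a smaller gap; inactive = above -10%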;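 also: 0% = median of neutral control wells and -100% = median of positive control wells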
# DUX4 inh difference: also measured in DUX4 inh; calls as there; Gaussia minus Italica difference, %; measured here: selective DUX4 reporter inhibition;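 worked out from the two reporters; negative = selective loss of the DUX4 reporter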
# DUX4 inh control: recorded beside DUX4 inh, whose call it bears; activity change, negative = inhibition, %; measured here: Italica tet-on control reporter;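 0 = neutral control and -100 = positive control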
# * = called active by the depositor; ? = inconclusive; · = no result given. This is a subset; rates above refer to the full screens.
SMILES,DUX4 inh,DUX4 inh difference,DUX4 inh control
COc1ccc2c3c(n(C)c2c1)[C@@H](CO)N(Cc1ccccc1)CC31CN(CC2CC2)C1,?,·,·
O=C(C[C@@H]1CC[C@@H]2[C@H](COC[C@@H](O)CN2C(=O)Nc2ccccc2)O1)NC1Cc2ccccc2C1,-1.1,-4.8,3.7
Cc1noc(C)c1NC(=O)Nc1ccc2c(c1)C(=O)N(C)[C@@H]1CC[C@@H](CC(=O)NCc3ccc(Cl)cc3)O[C@H]1CO2,0.8,1.5,-0.7
O=C1[C@H](Cc2ccc(F)cc2)CCn2cc(nn2)COC[C@H]2CCCN12,-4.0,-6.6,2.6
Cc1ccc(-c2cnc3c(c2)C(=O)N([C@@H](C)CO)C[C@@H](C)[C@@H](CN(C)Cc2ccccc2C(=O)O)O3)cc1,-1.9,0.8,-2.7
Cc1ccccc1S(=O)(=O)N1C[C@H](O)COC[C@@H]2O[C@H](CC(=O)NCCc3ccccc3)CC[C@H]21,9.9,4.2,5.7
C[C@H](CO)N1C[C@H](C)[C@H](CN(C)Cc2ccc(O)cc2)OCc2ccccc2-c2c(n(C)c3ccccc23)C1=O,-1.5,-4.9,3.3
CCNC(=O)Nc1ccc2c(c1)C(=O)N(C)[C@@H]1CC[C@H](CC(=O)NCCOC)O[C@@H]1CO2,0.3,-2.9,3.2
CC(C)NC(=O)N1[C@@H](CO)[C@@H](c2ccccc2)C12CN(Cc1ccccc1)C2,?,·,·
COc1ccc(S(=O)(=O)N[C@H]2CC[C@H](CCNC(=O)Cc3ccccn3)O[C@@H]2CO)cc1,-2.6,-9.6,7.0
COc1cccc(NC(=O)N(C)C[C@@H]2Oc3cc(C#Cc4ccncc4)ccc3S(=O)(=O)N([C@@H](C)CO)C[C@H]2C)c1,2.1,1.5,0.6
O=C(c1cccnc1)N1CCCCN2[C@@H](CO)[C@@H](c3ccc(C#Cc4cccnc4)cc3)[C@@H]2C1,0.0,-8.5,8.5
C[C@H](CO)N1C[C@H](C)[C@H](CN(C)C(=O)Nc2ccnc(N3CCOCC3)c2)OCc2ccccc2-c2c(n(C)c3ccccc23)C1=O,-0.9,-7.7,6.8
O=C(Nc1ccc2c(c1)[C@H]1C[C@H](CC(=O)N3CCc4ccccc4C3)O[C@@H](CO)[C@H]1O2)c1ccc2c(c1)OCO2,?,·,·
CCN(C[C@H]1[C@H](c2ccccc2)[C@@H](CO)N1CC1CC1)C(=O)c1ccccn1,0.0,-4.4,4.4
Cc1noc(C)c1NC(=O)N(C)C[C@@H]1OCCCC[C@@H](C)Oc2ccc(NS(=O)(=O)c3cn(C)cn3)cc2C(=O)N([C@H](C)CO)C[C@H]1C,3.6,-3.7,7.4
CCS(=O)(=O)N1CCCCN2[C@H](CO)[C@H](c3ccc(C4=CCCC4)cc3)[C@H]2C1,9.3,-16.8,26.1
CN(C)CC#Cc1ccc([C@H]2[C@@H](CO)N3CCCCN(C(=O)Nc4cc(F)ccc4F)C[C@@H]23)cc1,17.0,2.4,14.6
OC[C@H]1[C@@H](c2ccc(C#CC3(O)CCCC3)cc2)[C@@H]2CN(Cc3ccncc3)CCCCN12,8.0,2.8,5.2
CO[C@@H]1CN(C)C(=O)c2ccc(NC(=O)c3cnccn3)cc2OC[C@@H](C)N(C(=O)C2CC2)C[C@H]1C,2.9,0.0,2.9
CCCNC(=O)N1CC2(CN(C(=O)CC3CC3)C2)c2c(n(C)c3cc(OC)ccc23)[C@@H]1CO,2.1,-15.9,18.0
CCS(=O)(=O)N1CCCCN2[C@@H](CO)[C@@H](c3ccc(-c4ccccc4F)cc3)[C@@H]2C1,13.0,-0.3,13.3
COc1ccccc1-c1ccc2n(c1=O)C[C@H]1[C@H](CO)[C@@H](C(=O)NCc3ccccc3F)N[C@@H]21,-6.4,-17.7,11.3
CC(C)[C@@H]1CC=CC[C@H](C)Oc2ccccc2C(=O)N(C)[C@@H](C)C(=O)N1 (mixture of isomers),0.5,2.6,-2.2
CC(=O)N1CC(=O)N2[C@@H](CO)[C@@H](c3ccc(C#Cc4cccnc4)cc3)[C@@H]2C1,2.1,-4.4,6.5
CO[C@@H]1CC[C@H]2CCOc3ccc(C#N)cc3C(=O)N(C)C[C@@H](OC)[C@@H](C)C(=O)N(C)C[C@H]1O2,-2.3,-1.0,-1.3
CO[C@@H]1CN(C)C(=O)c2ccc(NC(C)=O)cc2OC[C@H](C)N(C(=O)C2CCOCC2)C[C@@H]1C,-0.9,-1.0,0.0
Cc1noc(C)c1S(=O)(=O)N(C)C[C@@H]1OCCCC[C@@H](C)Oc2ccc(NS(=O)(=O)c3cccs3)cc2C(=O)N([C@@H](C)CO)C[C@@H]1C,-2.1,1.1,-3.2
Cc1noc(C)c1S(=O)(=O)Nc1ccc2c(c1)CC(=O)N([C@H](C)CO)C[C@H](C)[C@@H](CN(C)C(=O)Nc1cccc3ccccc13)O2,-0.6,-1.6,1.0
O=C(C[C@@H]1CC[C@H](NC(=O)CN2CCOCC2)[C@H](CO)O1)NC1CCC1,0.6,0.9,-0.3
C[C@H](CO)N1C[C@H](C)[C@@H](CN(C)CC2CCCCC2)Oc2ccc(NS(=O)(=O)c3cccs3)cc2CC1=O,-3.4,-6.2,2.8
COc1ccc2c3c(n(C)c2c1)[C@@H](CO)N(C(=O)c1ccccc1)CC31CN(C(C)=O)C1,11.5,11.8,-0.2
COc1cccc(CN2[C@@H](CO)[C@@H](c3ccccc3)C23CN(C(=O)C2CCCCC2)C3)c1,?,·,·
C[C@H]1CN([C@@H](C)CO)C(=O)c2cc(NS(=O)(=O)c3cccs3)ccc2O[C@H]1CN(C)C(=O)Nc1ccc2c(c1)OCO2,-3.3,-1.7,-1.6
CCNC(=O)Nc1ccc2c(c1)C(=O)N(C)[C@@H]1CC[C@@H](CC(=O)NCCOC)O[C@@H]1CO2,0.1,-1.3,1.4
C[C@@H]1CCCCO[C@@H](CN(C)C(=O)CCC(F)(F)F)[C@@H](C)CN([C@H](C)CO)C(=O)c2cc(NS(=O)(=O)c3cccs3)ccc2O1,0.2,-0.7,0.9
COc1ccc2c3c([nH]c2c1)[C@H](CO)N(Cc1ccccn1)CC31CN(C(=O)CC2CC2)C1,4.2,-3.6,7.8
C[C@@H]1CN([C@H](C)CO)C(=O)c2cc(N(C)C)ccc2O[C@@H](C)CCCCO[C@H]1CN(C)C(=O)C1CCCCC1,3.5,1.0,2.4
CO[C@H]1CN(C)C(=O)c2ccc(NC(=O)Nc3cc(F)ccc3F)cc2OC[C@@H](C)N(C(=O)c2ccccn2)C[C@@H]1C,-5.9,-7.1,1.2
COc1ccc2c3c(n(C)c2c1)[C@H](CO)N(CC1CC1)CC31CN(S(=O)(=O)c2cn(C)cn2)C1,19.3,-10.5,29.8
CO[C@@H]1CN(C)C(=O)c2cc(NC(=O)C3CC3)ccc2OC[C@H](C)N(C(=O)NC(C)C)C[C@@H]1C,-0.7,-3.7,3.0
COc1ccc(C#Cc2ccc([C@H]3[C@H](CO)N4CCCCN(C(=O)Nc5ccccc5F)C[C@@H]34)cc2)cc1,?,·,·
CN1C(=O)c2cc(NS(C)(=O)=O)ccc2OC[C@H]2O[C@H](CC(=O)NCc3ccccc3)CC[C@@H]21,-5.9,-7.9,2.0
CC(C)(O)C#Cc1ccc([C@@H]2[C@H](CO)N3CCCCN(C(=O)c4ccncc4)C[C@@H]23)cc1,23.3,5.4,17.9
CCNC(=O)C[C@H]1CC[C@@H]2[C@H](COc3ccc(NS(C)(=O)=O)cc3C(=O)N2C)O1,-2.3,-4.5,2.2

# Only DUX4 inh difference and DUX4 inh (three entries from above):
SMILES | DUX4 inh difference | DUX4 inh
CO[C@@H]1CN(C)C(=O)c2cc(NC(=O)C3CC3)ccc2OC[C@H](C)N(C(=O)NC(C)C)C[C@@H]1C | -3.7 | -0.7
COc1ccc(C#Cc2ccc([C@H]3[C@H](CO)N4CCCCN(C(=O)Nc5ccccc5F)C[C@@H]34)cc2)cc1 | · | ?
CN1C(=O)c2cc(NS(C)(=O)=O)ccc2OC[C@H]2O[C@H](CC(=O)NCc3ccccc3)CC[C@@H]21 | -7.9 | -5.9

# (continued)
SMILES,DUX4 inh,DUX4 inh difference,DUX4 inh control
Cc1ccccc1-c1ccc([C@@H]2[C@@H](CO)N3CCCCN(C(=O)c4cccnc4)C[C@H]23)cc1,?,·,·
N#C[C@@H]1[C@@H](c2ccc(C#CC3CCCCC3)cc2)[C@H](CO)N1S(=O)(=O)c1ccccc1,2.4,3.4,-1.1
O=C(C[C@@H]1CC[C@H]2[C@@H](COC[C@@H](O)CN2Cc2nccs2)O1)NCc1ccc(Cl)cc1,7.8,6.9,0.9
COc1cccc(C#Cc2ccc([C@H]3[C@H]4CN(C(=O)Cc5cccnc5)CC(=O)N4[C@H]3CO)cc2)c1,2.2,4.0,-1.8
COc1ccc(NC(=O)N(C)C[C@H]2OCCCC[C@@H](C)Oc3ccc(NC(=O)CCCN(C)C)cc3C(=O)N([C@@H](C)CO)C[C@@H]2C)cc1,-0.1,-4.0,4.0
O=C(NCC[C@@H]1CC[C@H](NC(=O)c2ccc3c(c2)OCO3)[C@@H](CO)O1)Nc1cc(F)ccc1F,0.0,2.8,-2.7
CC(C)NC(=O)Nc1ccc2c(c1)C(=O)N(C)[C@H]1CC[C@H](CC(=O)NCc3ccc(F)cc3)O[C@H]1CO2,-1.8,-0.9,-0.9
C/C=C/c1ccc([C@H]2[C@H]3CN(Cc4ccc(C(=O)OC)cc4)CC(=O)N3[C@H]2CO)cc1,-3.1,-9.0,5.9
N#C[C@H]1[C@H](c2ccccc2)[C@@H](CO)N1C(=O)Nc1cccc(F)c1,-3.0,-1.6,-1.3
COc1ccc(S(=O)(=O)Nc2ccc3c(c2)CC(=O)N([C@H](C)CO)C[C@@H](C)[C@H](CN(C)C(=O)Nc2c(C)noc2C)O3)cc1,-4.0,-6.3,2.3
Cc1noc(C)c1NC(=O)N[C@@H]1C=C[C@H](CC(=O)Nc2ccc(-c3ccccc3)cc2)O[C@@H]1CO,-5.7,1.6,-7.3
Cc1noc(C)c1NC(=O)Nc1ccc2c(c1)C(=O)N([C@@H](C)CO)C[C@H](C)[C@@H](CN(C)S(=O)(=O)c1cn(C)cn1)OCCCC[C@@H](C)O2,6.4,-2.8,9.2
FC(F)(F)c1ccccc1CN1[C@@H]2CNC[C@H]1C2c1ccc(-c2ccncc2)cc1 (some centres not stated),2.2,-17.4,19.6
C[C@H](CO)N1C[C@H](C)[C@@H](CN(C)Cc2ccc(C(F)(F)F)cc2)OCCCC[C@H](C)Oc2ccc(NC(=O)Nc3cccc4ccccc34)cc2C1=O,-1.7,1.9,-3.6
CN(C)C(=O)C[C@H]1C[C@H]2c3cc(NC(=O)CC4CC4)ccc3O[C@H]2[C@H](CO)O1,3.0,10.7,-7.7
CO[C@@H]1CN(C)C(=O)c2cc(NS(=O)(=O)c3cn(C)cn3)ccc2OC[C@H](C)NC[C@@H]1C,0.9,-0.2,1.1
COC(=O)C[C@H]1C[C@@H]2c3cc(NC(=O)C4CCOCC4)ccc3O[C@@H]2[C@@H](CO)O1,2.8,3.2,-0.3
CCN(C[C@@H]1N[C@@H](CO)[C@@H]1c1ccc(C2=CCCC2)cc1)C(=O)c1ccncc1,-2.7,-4.8,2.1
COC(=O)N(C)C[C@@H]1OCc2cn(nn2)CCCC(=O)N([C@@H](C)CO)C[C@@H]1C,-2.2,-4.3,2.1
O=C(NC1CCCCC1)N[C@@H]1CC[C@@H](CC(=O)N2CCOCC2)O[C@H]1CO,2.6,1.2,1.4
O=C(C[C@@H]1CC[C@@H]2[C@H](COC[C@H](O)CN2C(=O)c2cccnc2)O1)NCC1CC1,0.2,1.7,-1.5
CC(C)[C@H](C)NC(=O)N(C)C[C@H]1OCc2ccccc2-c2c(n(C)c3ccccc23)C(=O)N([C@H](C)CO)C[C@@H]1C,?,·,·
CCS(=O)(=O)N1CCCCN2[C@H](CO)[C@@H](c3ccc(-c4ccc(C#N)cc4)cc3)[C@H]2C1,1.6,3.1,-1.4
CN(C)C(=O)C[C@H]1CC[C@H]2[C@@H](COC[C@@H](O)CN2Cc2ccc(C(F)(F)F)cc2)O1,5.4,5.4,0.0
CCCNC(=O)C[C@H]1CC[C@H]2[C@@H](COC[C@@H](O)CN2C(=O)Nc2cccc(Cl)c2)O1,5.0,-7.5,12.5
COc1ccc2c3c([nH]c2c1)[C@H](CO)N(S(=O)(=O)c1cn(C)cn1)CC31CCN(Cc2ccccc2Cl)CC1,-4.6,18.7,-23.3
O=C(Nc1cccc(F)c1)N1CC(=O)N2[C@@H](CO)[C@@H](c3ccc(C#CC4CC4)cc3)[C@@H]2C1,-0.9,-2.0,1.1
CCS(=O)(=O)N1CCCCN2[C@H](C1)[C@@H](c1ccc(-c3ccccc3C)cc1)[C@@H]2CO,8.5,6.8,1.8
CCCC(=O)N1CC2(C1)CN(C(=O)C1CCOCC1)[C@@H](CO)c1[nH]c3cc(OC)ccc3c12,9.6,-1.4,10.9
CCCNC(=O)N(C)C[C@H]1Oc2ncc(C#CCc3ccccc3)cc2C(=O)N([C@H](C)CO)C[C@@H]1C,-3.0,-6.0,3.0
C[C@@H](NC(=O)[C@H]1[C@H](CO)[C@H]2Cn3c(ccc(-c4cccnc4)c3=O)[C@@H]1N2C)c1ccccc1,-0.1,-7.4,7.2

# Of the compounds above, these have a cyano group:
SMILES,DUX4 inh,DUX4 inh difference,DUX4 inh control
CO[C@@H]1CC[C@H]2CCOc3ccc(C#N)cc3C(=O)N(C)C[C@@H](OC)[C@@H](C)C(=O)N(C)C[C@H]1O2,-2.3,-1.0,-1.3
N#C[C@@H]1[C@@H](c2ccc(C#CC3CCCCC3)cc2)[C@H](CO)N1S(=O)(=O)c1ccccc1,2.4,3.4,-1.1
N#C[C@H]1[C@H](c2ccccc2)[C@@H](CO)N1C(=O)Nc1cccc(F)c1,-3.0,-1.6,-1.3
CCS(=O)(=O)N1CCCCN2[C@H](CO)[C@@H](c3ccc(-c4ccc(C#N)cc4)cc3)[C@H]2C1,1.6,3.1,-1.4

# Screening results deposited in PubChem BioAssay by Broad Institute.
